Assay outcomes: PubChem BioAssay, several laboratories
Autofluor counter: compound fluorescence in toxin protease inhibitor counterscreen. compound autofluorescence counterscreen, microsphere flow cytometry; active compounds read high. fluorescence intensity (no concentration beside the values). 360,000 compounds, 3.1% hits;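 active = at least 3 SD above the mean of all compounds, about 16000 in these data; inconclusive = too few beads counted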;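 note: 100 nL of 1 mM stock went into each well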
Sa ugtP lethal: kills S. aureus RN4220 lacking UgtP; 330,000 compounds, 0.54% hits; S. aureus RN4220 ugtP deletion, OD600 growth, 16 h; some inactives read as strong as hits; growth inhibition, % (no concentration beside the values);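 active = z-score under -3 and OD600 up to 0.15 on both plates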;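 note: plate controls were untreated wells for no effect and antibiotic for full effect; wells of about 80 µL received 100 nL stock; the first replicate is given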
BJeLR lethal: kills HRASV12-expressing BJeLR cells; BJeLR (HRASV12) viability, CellTiter-Glo ATP luminescence, 48 h; reference of the scale not given here; inhibition, % (no concentration beside the values); 300,000 compounds, 0.17% hits;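 active = replicate mean above 50%; inconclusive = above 50% but judged a plate artefact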;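 note: 50 nL library stock added to about 25 µL; numbers are from one replicate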
Mtb hypoxia inh: inhibitors of hypoxia-regulated fluorescent reporter in Mycobacterium tuberculosis; M. tuberculosis hypoxia-regulated fluorescent reporter, fluorescence; fluorescence inhibition, % (test concentration not listed); 300,000 compounds, 0.1% hits; AID 1159583;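 active = 35 to 45% if threefold the growth effect, above 45% if 1.5-fold the growth effect; inactive = the rest, general growth blockers included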;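 note: wells of about 50 µL received 100 nL stock; 0% = vehicle wells and 100% = reference inhibitor wells; whole bacteria with a GFP reporter of the hypoxia response; strong numbers were not always called active; many hits fall short of the cut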
Sa RN4220 lethal: kills Staphylococcus aureus RN4220; S. aureus RN4220 growth, OD600, 16 h; inhibition, % (test concentration not listed); 330,000 compounds, 0.33% hits; AID 1259311;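 active = z-score of -3 or lower and OD600 up to 0.18 on both plates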;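 note: plate controls were untreated cells for no effect and reference antibiotic for full effect; stock transfer was 100 nL into about 80 µL; one replicate is shown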
PrP 5UTR inh: inhibition of PrP 5' UTR reporter expression; cell-based PrP 5' UTR mRNA reporter, plate reader; inhibition, % (no concentration beside the values); 340,000 compounds, 0.35% hits; AID 488862;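 active = every replicate at 50% or more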;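 note: 0 = median of the neutral control wells; tested in H4 reporter cells; numbers are from one replicate; inactives centre near -14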
Mtb hypoxia inh growth: recorded beside Mtb hypoxia inh, whose call it bears; growth inhibition, %; measured here: M. tuberculosis growth (absorbance);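 0% = vehicle and 100% = reference antibiotic; read after six days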
Active calls of the source: *; ? = inconclusive; / = not tested or not shown.

Labels used below – A = Autofluor counter; B = Sa ugtP lethal; C = BJeLR lethal; D = Mtb hypoxia inh; E = Mtb hypoxia inh growth; F = Sa RN4220 lethal; G = PrP 5UTR inh
COc1ccc(CNCCSc2nnnn2C)c(OC)c1OC
  A = 4273; B = 2; C = -6; D = -3; E = 4; F = 4.5; G = -25
CC1(C)CC(CC(=O)O)(c2ccc(F)cc2)CCO1 (configuration not stated)
  A = 6163; B = 12; C = -5; D = 10; E = 3; F = 2.5; G = -28
CN=C1NN=C(c2cc(C)n(-c3c(C)n(C)n(-c4ccccc4)c3=O)c2C)CS1
  A = 2402; B = 3; C = -3; D = 2; E = -3; F = 6.0; G = -15
O=C(CN1C(=O)C2CCCCC2C1=O)N1CCN(c2ncccn2)CC1 (configuration not stated)
  A = 4671; B = 0; C = 1; D = 10; E = -4; F = 2.3; G = -5
Clc1ccc(OCCCCCN2CCOCC2)cc1
  A = 4071; B = 5; C = -1; D = -13; E = 1; F = -0.8; G = -6
NC(=O)C(N=Nc1ccccc1)=NNc1ccccc1
  A = /; B = -2; C = /; D = 0; E = 2; F = 3.2; G = /
CCOC(=O)c1c(N)sc(C(O)(C(F)(F)F)C(F)(F)F)c1-c1ccccc1
  A = 3502; B = -10; C = -3; D = 4; E = 9; F = -8.5; G = -13
Cc1cccc(NC(=S)N(CCN(C)C)Cc2cccs2)c1
  A = 4555; B = -3; C = -2; D = -15; E = 2; F = 2.8; G = -8
CCC(NC(=O)Cc1cccs1)c1ccccc1 (configuration not stated)
  A = 4251; B = 0; C = 23; D = -3; E = 6; F = 2.7; G = -10
Clc1cccc(Cl)c1CSc1nnc(CN2CCOCC2)n1-c1ccccc1
  A = 3178; B = 2; C = 2; D = -5; E = -7; F = 9.9; G = -14
Cc1cnc(NC(=O)c2cc(S(=O)(=O)N(C)C)ccc2N2CCCC2)s1
  A = 3016; B = -5; C = /; D = -5; E = -6; F = -2.7; G = /
COC(=O)C(C=NO)NC(=O)c1ccccc1 (configuration not stated)
  A = /; B = 10; C = /; D = 6; E = -2; F = 5.9; G = /
Cc1nc(C)c(CCNC(=O)c2ccc(C(F)(F)F)cc2)s1
  A = 10431; B = 14; C = 3; D = 14; E = 12; F = 2.8; G = -12
CCOC(=O)N1CCN(S(=O)(=O)c2ccc([N+](=O)[O-])cc2)CC1
  A = 4393; B = 14; C = 0; D = 5; E = 12; F = 5.2; G = -4
CC(C)[C@H](NC(=O)c1ccccc1F)C(=O)NC1CCCCCCC1
  A = 6425; B = 4; C = /; D = 0; E = -2; F = 1.2; G = -2
CC(=O)N1CCN(S(=O)(=O)c2cccc(C(=O)NCCC3=CCCCC3)c2)CC1
  A = /; B = -2; C = 1; D = -7; E = -9; F = -2.3; G = -6
O=C(Nc1cccc(Cl)c1)OCCOc1ccccc1
  A = 4527; B = -12; C = 0; D = 16; E = 1; F = -1.9; G = -43
CC1=C(C#N)CCC(=O)N1Cc1c(F)cccc1Cl
  A = 4847; B = -2; C = 1; D = 8; E = -5; F = 2.2; G = -7
N#Cc1c(-c2ccccc2)c(-c2ccccc2)n(Cc2ccco2)c1NC(=O)c1cccs1
  A = 3745; B = 59; C = 4; D = 8; E = 1; F = -10; G = 1
N#Cc1cc(-c2ccc(Cl)cc2)cn(Cc2c(Cl)cccc2Cl)c1=O
  A = 11178; B = -13; C = /; D = 4; E = 4; F = 6.5; G = -3
CC(CCc1ccco1)NC(=O)c1cc2c(-c3ccccc3F)nn(C)c2s1 (configuration not stated)
  A = 5647; B = 15; C = -3; D = -2; E = 2; F = -1.0; G = 6
CN(C)c1oc(-c2ccccc2Cl)nc1P(=O)(c1ccccc1)c1ccccc1
  A = 6641; B = -11; C = 2; D = 6; E = 0; F = -1.1; G = -20
O=C(COc1ccc(Cl)cc1)Nc1ccc(Cc2ccncc2)cc1
  A = 3471; B = 3; C = -5; D = 3; E = 4; F = 0.9; G = -17
Cc1cc(C)c(C2C3=C(Nc4c2c(C)nn4-c2ccccn2)c2ccccc2C3=O)c(C)c1 (configuration not stated)
  A = 2154; B = -11; C = -20; D = 0; E = 2; F = -8.3; G = -1
CC(C)n1cc(C(=O)N(CC(=O)NC2CCCC2)Cc2ccccc2)cn1
  A = 10443; B = 2; C = 3; D = 0; E = -6; F = 4.5; G = -17
CCOC(=O)c1ccc(N2C(=O)CC(N(Cc3ccc4c(c3)OCO4)C(=O)Nc3ccccc3)C2=O)cc1 (configuration not stated)
  A = 11163; B = 6; C = -1; D = -10; E = 3; F = 0.5; G = -24
CC12CCC(C(=O)NCc3ccccc3Cl)(OC1=O)C2(C)C (configuration not stated)
  A = 4161; B = 2; C = -3; D = 4; E = 14; F = 2.6; G = -5
COCCNC(=O)CN1C(=O)/C(=C/c2ccccc2)Oc2ccc(C(C)(C)C)cc21
  A = 3009; B = -11; C = 13; D = 12; E = 12; F = 4.1; G = -16
Cc1ccc(CNC(=O)CCCc2cn(C)c3ccccc23)cc1
  A = 4149; B = 5; C = -5; D = 5; E = 4; F = -0.2; G = -15
CCN(C(=O)CSc1nnnn1-c1cc(C)ccc1OC)C1CCS(=O)(=O)C1 (configuration not stated)
  A = 3384; B = 1; C = -1; D = 6; E = 1; F = -12; G = -9
CCC1(C)Cc2c(sc3nc(SC)[nH]c(=S)c23)CO1 (configuration not stated)
  A = /; B = -5; C = -5; D = 4; E = 4; F = 6.5; G = /
Cc1ccccc1OCC(=O)Nc1ccc2c(c1)COC2=O
  A = 20173*; B = -7; C = -14; D = 8; E = 7; F = 0.3; G = -25
O=C1C2C3C=CC([C@@H]2C(=O)N1Cc1cccnc1)C31CC1 (some centres not stated)
  A = 2920; B = 4; C = -1; D = 13; E = 10; F = 2.6; G = -20
Cc1nnc(SC(C(=O)Nc2ccc(Cl)c([N+](=O)[O-])c2)c2ccccc2)[nH]c1=O (configuration not stated)
  A = 3750; B = 3; C = 2; D = 8; E = 9; F = 6.3; G = -16
O=C(Cc1cccc(NC(=O)C2CCN(C(=O)CCc3ccccc3)CC2)c1)Nc1cccc(C(=O)N2CCCCC2)c1
  A = 2911; B = 11; C = /; D = 5; E = 4; F = 4.5; G = -10
COc1ccc(O)c(C(=O)c2cnc3onc(C)c3c2)c1
  A = 8802; B = -1; C = -1; D = 1; E = -3; F = 1.0; G = -15
CN(C)/C=C1\SC(=S)N(c2ccc(F)cc2)C1=O
  A = /; B = -6; C = -10; D = 11; E = 3; F = 3.3; G = -18
CC(/C=C/c1ccc2c(c1)OCO2)=NNC(=O)C1COc2ccccc2O1 (configuration not stated)
  A = /; B = -2; C = /; D = 2; E = -4; F = 6.3; G = /
Nc1cc(Cl)ccc1N1CCCCC1
  A = 4451; B = -2; C = 11; D = 17; E = 4; F = 9.6; G = -31
O=c1oc2ccccc2cc1-c1csc(NN=C2CCCCC2)n1
  A = 12422; B = -28; C = 5; D = -3; E = 9; F = -3.6; G = -65
CC[C@@]1(C(=O)OC)N[C@H](CN(C)C(=O)Nc2ccccc2)[C@@H]2C(=O)N(Cc3ccccc3)C(=O)[C@@H]21
  A = 3321; B = 7; C = /; D = 5; E = 8; F = 4.9; G = -7
S=C(NCCCN1CCOCC1)Nc1ccc(Cl)c(Cl)c1
  A = 2423; B = 8; C = 2; D = 1; E = -8; F = 0.8; G = -10
COc1ccc(C2CC(=O)c3cnn(-c4nc(C)cc(C)n4)c3C2)cc1OC (configuration not stated)
  A = 4325; B = 0; C = -2; D = -2; E = 1; F = 2.3; G = -22
CN1CCN(/N=C/c2c(O)n(Cc3ccc(F)cc3)c(=O)[nH]c2=O)CC1
  A = 5877; B = 3; C = 8; D = 1; E = 4; F = 0.0; G = -24
CC1=CC(c2ccc(Cl)cc2)n2nc(NC(=O)CCCC(=O)O)nc2N1 (configuration not stated)
  A = 4294; B = 8; C = -11; D = 6; E = -5; F = 5.7; G = -6
COc1cccc(/C=C/c2nc3c(cnn3-c3ccccc3)c(=O)[nH]2)c1
  A = 3386; B = 2; C = 33; D = 6; E = 4; F = -0.9; G = -32
Cc1cccc(NC(=O)CSc2nc3c(c(=O)[nH]2)CCCC3)c1C
  A = 12953; B = -4; C = -2; D = 9; E = 7; F = 4.1; G = -15
Cc1ccc(C(=O)N(CC(=O)NC2CCCC2)c2ccccc2Cl)s1
  A = 5760; B = 0; C = -9; D = 4; E = 6; F = 3.3; G = -5
O=C(NCc1ccc2c(c1)OCO2)c1cc(-c2ccccc2)nn1CC1CC(c2cccnc2)=NO1 (configuration not stated)
  A = 3589; B = 1; C = 1; D = 5; E = 7; F = 6.1; G = -28
Cc1nn(-c2ccccc2)c(C)c1C=NO
  A = /; B = 2; C = /; D = 13; E = 1; F = -8.0; G = /

The list continues:
Labels used below – A = Autofluor counter; B = Sa ugtP lethal; C = BJeLR lethal; D = Mtb hypoxia inh; E = Mtb hypoxia inh growth; F = Sa RN4220 lethal; G = PrP 5UTR inh
Cc1ccc(C(=O)Nc2nc(-c3ccccc3)c(-c3ccccc3)o2)cc1
  A = 2362; B = -8; C = -12; D = -3; E = 4; F = 9.9; G = -4
CCCN(CCC)S(=O)(=O)c1ccc(NC(=O)c2cc(C(=O)OC)cc([N+](=O)[O-])c2)cc1
  A = 5748; B = 11; C = -6; D = -7; E = -2; F = 5.5; G = -22
COc1ccc(CC(C)=NNC(=O)C2COc3ccccc3O2)cc1 (configuration not stated)
  A = /; B = -2; C = /; D = -7; E = 4; F = -1.7; G = /
O=C1CSC(c2ccccn2)N1c1ccccc1 (configuration not stated)
  A = 21482*; B = 2; C = 2; D = 5; E = 13; F = -0.8; G = -3
COCCNC(=S)N1CCN(c2nc(-c3ccc(Cl)cc3)cs2)CC1
  A = 3110; B = /; C = -7; D = /; E = /; F = /; G = -9
CCOC(=O)N1CCN(C2=C(NS(=O)(=O)c3ccccc3)C(=O)c3ccccc3C2=O)CC1
  A = 5430; B = -1; C = 2; D = -2; E = 12; F = 13; G = -3
CCCCN(CC)CCCNC(=O)C1CCN(c2ncnc3c2sc2cccc(F)c23)CC1
  A = 4979; B = 2; C = 11; D = 8; E = -1; F = -0.7; G = -45
O=C(C1=C(O)C(=O)N(CCc2ccccc2)C1c1cccnc1)c1ccco1 (configuration not stated)
  A = 5010; B = 1; C = 4; D = 16; E = 12; F = 0.9; G = 3
COc1ccccc1OCCNC(=O)C1CCN(C(C)=O)CC1
  A = 10432; B = 4; C = 1; D = 14; E = 2; F = 2.8; G = -7
CCOc1ccc(NC(=O)CN(C)C(=O)CN2C(=O)C3CCCCC3C2=O)cc1OCC (configuration not stated)
  A = ?; B = 1; C = /; D = -6; E = -6; F = 1.8; G = /
CCC(=O)c1ccc(OCC(O)CNCc2ccc(F)cc2)cc1 (configuration not stated)
  A = 1996; B = -6; C = 9; D = 3; E = 11; F = 3.6; G = -2
S=C(NCC1CCCCC1)Nc1cccnc1
  A = 7341; B = 14; C = 14; D = 17; E = 8; F = 5.5; G = -14
O=C(Nc1cccc(C(=O)NC2CCCCC2)c1)c1ccccc1
  A = 5789; B = -2; C = -6; D = 6; E = 9; F = -0.4; G = -15
O=C(NCCCCNC(=O)c1cccnc1)c1cccnc1
  A = 10565; B = -3; C = -1; D = 0; E = -1; F = 0.7; G = -23

Another view of some results above:
CN(C)/C=C1\SC(=S)N(c2ccc(F)cc2)C1=O
  Autofluor counter: / | Sa ugtP lethal: -6 | BJeLR lethal: -10 | Mtb hypoxia inh: 11 | Mtb hypoxia inh growth: 3 | Sa RN4220 lethal: 3.3 | PrP 5UTR inh: -18
CC(/C=C/c1ccc2c(c1)OCO2)=NNC(=O)C1COc2ccccc2O1 (configuration not stated)
  Autofluor counter: / | Sa ugtP lethal: -2 | BJeLR lethal: / | Mtb hypoxia inh: 2 | Mtb hypoxia inh growth: -4 | Sa RN4220 lethal: 6.3 | PrP 5UTR inh: /
Nc1cc(Cl)ccc1N1CCCCC1
  Autofluor counter: 4451 | Sa ugtP lethal: -2 | BJeLR lethal: 11 | Mtb hypoxia inh: 17 | Mtb hypoxia inh growth: 4 | Sa RN4220 lethal: 9.6 | PrP 5UTR inh: -31
O=c1oc2ccccc2cc1-c1csc(NN=C2CCCCC2)n1
  Autofluor counter: 12422 | Sa ugtP lethal: -28 | BJeLR lethal: 5 | Mtb hypoxia inh: -3 | Mtb hypoxia inh growth: 9 | Sa RN4220 lethal: -3.6 | PrP 5UTR inh: -65

Outcome played no part in choosing rows, and some 4% of all compounds hit somewhere here.
